HNF4A DNA FP: change in binding of human HNF4A to DNA, primary screen, biochemical, fluorescence polarization, FITC-DNA; 1 h; activity change, % at 10 µM; 360,000 tested, 0.3% active; in the data active = activity change above about 30%, passing the limit was not always enough;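 also: controls were the assay level and a saturating level of protein; the project sought stronger binding though the title names inhibitors; some compounds called inactive have numbers as strong as hits; positive values seem to mean higher polarization but the record does not say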
Ecoli rRNA inh: reduced GFP signal of wild-type E. coli, primary screen, bacterial rRNA inhibitor project, GFP/RFP fluorescence, OD600, single point. E. coli WT GFP vs humanized-ribosome RFP mutants, 24 h; active compounds read low; DMSO median 0, no signal -100. GFP signal change (wild-type ribosome), % (no concentration beside the values). 350,000 tested, 1.6% active. AID 720706, 2013;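 active = significant combined selectivity score with lowered wild-type GFP, culture density cut under 30%, mutant RFP and density less affected; inactive = any of these conditions unmet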; also: one replicate is shown; some compounds called inactive have numbers as strong as hits
FGF22 binding: binders of human FGF22 protein, primary screen, FGF22 synaptogenesis inhibitor project, biophysical, thermal shift, single point | calls only at 9.99 µM | 340,000 tested, 1.5% active | recombinant FGF22 thermal shift, SYPRO orange fluorescence; percent of sucrose octasulfate shift, DMSO zero;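 active = melting point raised past a set limit in the mean and every replicate; inconclusive = no clear call; three in four hits are not shown here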
Target sequence (Q9HCT0 whole entry, looked up): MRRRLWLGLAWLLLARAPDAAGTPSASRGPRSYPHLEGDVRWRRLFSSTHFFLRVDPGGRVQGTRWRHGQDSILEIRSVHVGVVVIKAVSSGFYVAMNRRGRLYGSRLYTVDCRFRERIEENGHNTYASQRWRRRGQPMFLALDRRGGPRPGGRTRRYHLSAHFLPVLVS
E coli growth: E. coli growth inhibition, primary screen, OD600. Escherichia coli growth, 23 h; active compounds read low. OD600 absorbance (test concentration not listed). 330,000 tested, 0.21% active;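 active = OD600 absorbance below the run mean of sample wells minus 3.6 SD, in any replicate, cut at about 0.56 in these data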;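 also: stock transfer was 300 nL into about 60 µL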
Vif A3G: inhibitors of Vif binding to APOBEC3G peptide, primary screen, biochemical, TR-FRET, GST-Vif 1-94, biotin-A3G peptide, dose response retest (AID 1117319). Virion infectivity factor (Human immunodeficiency virus type 1 group M subtype B (isolate …. TR-FRET GST-Vif / biotin-A3G peptide binding; higher % means a stronger effect; test concentration not given here; strong numbers were not always called active. inhibition, %, or IC50 in µM where a hit was titrated. 260,000 tested, 0.57% active;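 active = above the screen mean plus three standard deviations and confirmed in dose response; inconclusive = results disagree or hit not tested in dose response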;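 also: Vif residues 1-94 fused to GST binding biotinylated APOBEC3G peptide 110-148; 0% = full assay without inhibitor and 100% = GST in place of GST-Vif; retest series ran down from 100 µM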
ALR H2O2 inh: inhibitors of human ALR sulfhydryl oxidase, primary screen, biochemical, H2O2 detection, HRP-luminol luminescence, single point; FAD-linked sulfhydryl oxidase ALR (Homo sapiens), P55789; purified ALR, DTT oxidation; inhibition, % (concentration not given with the values); 290,000 tested, 3.8% active; AID 485317, 2010;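 active = mean and each replicate at 75% or more; inconclusive = only one of the two met; inactive = neither met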;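 also: stock transfer was 7.5 nL into about 7.5 µL; 0% = neutral wells and 100% = wells with inactivated enzyme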
Target sequence (P55789 whole entry, looked up): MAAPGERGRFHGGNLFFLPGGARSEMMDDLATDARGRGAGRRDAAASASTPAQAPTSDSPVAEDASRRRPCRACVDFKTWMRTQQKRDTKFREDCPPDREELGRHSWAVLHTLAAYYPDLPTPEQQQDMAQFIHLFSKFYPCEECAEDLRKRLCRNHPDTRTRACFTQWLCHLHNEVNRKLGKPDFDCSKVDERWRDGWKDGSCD
AF4-AF9 inh: inhibitors of AF4 peptide binding to AF9, primary screen, biochemical, AlphaScreen, biotin-AF4 peptide, FLAG-AF9, single point. inhibition, % at 10 µM. Protein AF-9 (Homo sapiens), P42568. 350,000 tested, 0.47% active;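 active = every replicate reaching a set inhibition limit, whatever the replicate mean, cut at about 25% in these data; inconclusive = mean inhibition reaches that limit but some replicates miss it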;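 also: 0% = plate neutral control median and 100% = total signal loss; the record names both 10 and 1 µM as test concentration; the first replicate is given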
Target sequence (P42568 whole entry, looked up): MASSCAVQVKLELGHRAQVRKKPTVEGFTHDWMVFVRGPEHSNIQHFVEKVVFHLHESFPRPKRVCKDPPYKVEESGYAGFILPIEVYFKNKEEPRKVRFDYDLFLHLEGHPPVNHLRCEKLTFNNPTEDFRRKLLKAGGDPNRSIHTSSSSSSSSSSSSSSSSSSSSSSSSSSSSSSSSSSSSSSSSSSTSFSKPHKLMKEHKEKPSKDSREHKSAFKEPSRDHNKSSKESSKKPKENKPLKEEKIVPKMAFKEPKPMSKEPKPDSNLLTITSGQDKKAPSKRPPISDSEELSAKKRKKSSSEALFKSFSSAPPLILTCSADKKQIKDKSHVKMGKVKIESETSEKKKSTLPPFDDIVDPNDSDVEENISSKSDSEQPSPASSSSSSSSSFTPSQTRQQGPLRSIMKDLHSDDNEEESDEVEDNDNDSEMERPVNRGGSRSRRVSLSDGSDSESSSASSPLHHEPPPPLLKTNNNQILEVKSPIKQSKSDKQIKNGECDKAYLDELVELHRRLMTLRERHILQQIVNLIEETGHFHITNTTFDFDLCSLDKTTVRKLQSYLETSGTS
Ecoli rRNA inh OD600: second read-out of Ecoli rRNA inh, no call of its own (marks repeat the call); OD600 change, %; measured here: OD600 growth;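 optical density of the mix in the first replicate; 0 = DMSO median and -100 = no signal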
Ecoli rRNA inh RFP: recorded beside Ecoli rRNA inh, whose call it bears; RFP signal change, %; measured here: RFP humanized mutant strains;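 first replicate; 0 = DMSO median and -100 = no signal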
* hit, by the source's call; i = inactive; ? = inconclusive; . = not tested or not shown; & = joins results of further samples. This is a subset. The share of hits here may be higher or lower than overall.

SMILES	HNF4A DNA FP	Ecoli rRNA inh	Ecoli rRNA inh OD600	Ecoli rRNA inh RFP	FGF22 binding	E coli growth	Vif A3G	ALR H2O2 inh	AF4-AF9 inh
CC(=O)N1CCc2cc(S(=O)(=O)NC(Cc3ccccc3)C(=O)NC3CCCCCC3)ccc21 (stereo not drawn)	1.4	.	.	.	.	0.667	-6.5%	-4.6	.
CN(Cc1ccn[nH]1)C(=O)C1CCC(=O)N(Cc2cccc(C(F)(F)F)c2)C1 (stereo not drawn)	-0.8	0.4	7.9	-1.4	i	0.694	-1.5%	-22.2	2.3
CCOc1ccc(S(=O)(=O)N2CCCC2)c2ccccc12	1.6	-23.2	-51.3	-9.6	i	.	.	.	-7.1
Cc1sc2nc(SCC(=O)NCc3ccco3)n(Cc3ccccc3)c(=O)c2c1C	2.2	.	.	.	.	0.734	-3.2%	6.2	.
COc1ccc(CNC(=O)c2nn(-c3ccccc3)cc2OC)cc1	2.0	-20.1	-16.7	0.7	i	0.65	6.8%	-2.9	-0.8
C[C@H](CO)N1C[C@H](C)[C@@H](CN(C)Cc2cncnc2)Oc2ncc(-c3ccc(F)cc3)cc2C1=O	.	2.3	5.3	-0.9	i	.	.	.	-3.0
C[C@@H]1CN([C@@H](C)CO)C(=O)c2cc(NC(=O)Nc3ccc4c(c3)OCO4)ccc2O[C@@H](C)CCCCO[C@@H]1CN(C)Cc1ccncc1	.	-2.8	-2.4	0.8	i	.	.	.	4.0
C=CCOc1c(Cl)cc(C(=S)N2CCCC2)cc1OCC	0.0	-8.5	-23.0	-5.4	i	0.647	.	.	-2.6
CC=Cc1ccc2n(c1=O)C[C@@H]1[C@@H](CO)[C@H](C(=O)N3CCc4ccccc4C3)[C@H]2N1CCC (mixture of isomers)	.	-1.1	-3.4	5.4	i	.	.	.	3.1
COC(=O)c1cc(C(=O)Nc2cc(C)on2)cc([N+](=O)[O-])c1	-4.0	22.3	16.5	1.7	i	0.626	-8.0%	6.5	-2.5
Cn1cc(-c2nnc(-c3ccccc3)o2)c2ccccc21	1.6	.	.	.	.	0.711	-6.7%	-8.4	.
Cc1ccc(C)c(N(C(=O)Cn2nnc(-c3cccs3)n2)C(C(=O)NC2CCCC2)c2ccncc2)c1 (stereo not drawn)	-1.1	.	.	.	.	0.669	-2.4%	3.5	.
C[C@H](CO)N1C[C@H](C)[C@H](CN(C)Cc2cccnc2)Oc2cc(/C=C/c3ccccc3)ccc2S1(=O)=O	.	3.9	-15.0	14.2	i	.	.	.	14.5
CCC(C(=O)NC1CCCC1)n1c(-c2ccccn2)nc2ccccc21 (stereo not drawn)	-2.2	-5.3	-6.8	-3.5	i	.	.	.	-0.5
COc1ccc(NC(=O)C(C)N2CCN(C)CC2)cc1 (stereo not drawn)	0.5	17.4	23.8	2.8	i	0.698	3.8%	-1.8	-26.4
CCn1c(=O)c(C(=O)NCc2ccc3c(c2)OCO3)c(O)c2ccccc21	-0.9	16.1	9.1	2.3	i	0.616	-3.1%	2.1	1.2
COc1ccc(C(=O)NC(C)c2nnc(SCC(=O)NC3=NCCS3)n2C)cc1 (stereo not drawn)	-4.5	-0.7	0.1	-2.0	i	0.693	.	-0.9	3.9
COc1cc(C2c3sc(=O)[nH]c3SC3C(=O)N(c4ccc(Br)cc4)C(=O)C32)ccc1O (stereo not drawn)	-0.9	-18.0	-9.8	8.2	i	0.73	21.2%	59.4	6.2
COc1ccc(NC(=O)CC(c2ccc(F)cc2)c2ccc(OC)cc2)cc1 (stereo not drawn)	0.5	.	.	.	.	0.665	.	-8.1	.
CN1C(CC(=O)Nc2ccc(Cl)cc2Cl)c2ccccc2CC1(C)C (stereo not drawn)	-1.9	-10.9	-10.6	3.1	i	0.658	-7.1%	.	3.8
C=CCNC(=O)/C(C#N)=C/c1c(N2CCN(c3cccc(Cl)c3)CC2)nc2c(C)cccn2c1=O	-1.9	10.7	7.8	3.8	i	0.707	-3.7%	-6.5	1.2
Cc1ccnn2cc3c(=O)n(C)c(=O)n(C)c3c12	.	.	.	.	.	0.676	0.2%	-2.8	.
CC(=O)C[C@@H](O)CC(=O)[C@H]1OC(=O)CCCCCc2ccccc21	0.7	10.1	6.0	8.1	i	0.712	0.0%	.	-4.9
O=C(Nc1ccc(F)c(F)c1)C1=COCCO1	-1.4	6.6	11.4	-1.6	i	0.682	6.8%	-6.3	-2.1
COc1ccc(CCNC(=O)Cn2c(=O)c3cccn3c3cccnc32)c(OC)c1OC	0.4	10.8	18.4	2.4	i	0.748	.	-3.8	-2.7
Remaining list, next part
SMILES	HNF4A DNA FP	Ecoli rRNA inh	Ecoli rRNA inh OD600	Ecoli rRNA inh RFP	FGF22 binding	E coli growth	Vif A3G	ALR H2O2 inh	AF4-AF9 inh
CC(NCC(=O)NCCc1ccc(S(N)(=O)=O)cc1)c1ccc(F)cc1 (stereo not drawn)	-1.3	-1.1	-19.9	-3.9	i	0.679	.	-10.8	0.9
CCONC(=O)Nc1ccccc1[N+](=O)[O-]	0.0	11.3	-5.7	1.2	i	0.662	.	-15.8	12.6
CCOC1=C2CN(S(=O)(=O)c3ccc(C)cc3)[C@H](c3cccs3)C[C@H]2[C@H]2C(=O)N(c3ccccc3)C(=O)[C@H]2C1	-1.2	6.2	1.8	4.2	i	.	.	.	0.2
CC(C)C[C@H](NC(=O)c1nc[nH]c1C(=O)N1CCN(c2ccccc2)CC1)C(=O)OCc1ccccc1	0.9	0.6	-4.5	-6.1	i	.	13.2%	-1.7	8.5
CC1(C(=O)NC2CCCCC2)CCC(=O)N1Cc1ccc2c(c1)OCO2 (stereo not drawn)	4.4	3.6	-1.5	-4.9	i	0.687	-8.4%	-0.7	-12.1
CCOC(=O)C(O)(CC(=O)Nc1cc(F)ccc1C)C(F)(F)F (stereo not drawn)	2.3	.	.	.	.	0.695	5.5%	-0.7	.
NC(=O)C1CCCN(S(=O)(=O)c2ccccc2)C1 (stereo not drawn)	-1.7	9.8	0.3	3.1	i	0.71	?	3.1	-44.3
COc1ccc(COC(=O)c2ccc(S(=O)(=O)N3CCCCC3)cc2)cc1OC	2.0	14.8	13.4	1.9	i	0.657	6.4%	-3.2	-0.9
CCCCOCCCNC(=O)c1ccc(OCC)cc1	0.6	.	.	.	.	0.77	64.3%	-1.9	.
CCOc1ccccc1C(=O)OC(C)C(=O)Nc1ccc(S(=O)(=O)N2CCCC2)cc1 (stereo not drawn)	0.1	.	.	.	i	0.712	.	-17.2	1.8
CC1(C)CC(N=c2cc(-c3ccccc3)oc3ccc(Cl)cc23)CC(C)(C)N1	-36.1	-57.9	-82.6	-21.9	i	0.608	-2.1%	.	19.0
O=c1[nH]c(CSc2ccccn2)nc2c1oc1ccccc12	-0.2	12.6	9.4	0.4	i	0.72	-24.9%	-14.7	-2.4
Cc1ccccc1NC(=O)c1sc(NC(=O)C2CC2)nc1C	1.8	7.5	7.6	-0.4	i	0.667	27.5%	-18.6	-1.8
O=C(c1cccs1)N1CCN(Cc2ccccc2[N+](=O)[O-])CC1	2.1	.	.	.	.	0.696	29.5%	51.5	.
CC(C)Cc1nc(SCc2cccnc2)c2c(=O)n(C)c(=O)n(C)c2n1	1.5	-17.5	-28.5	-4.0	i	0.686	3.3%	-14.6	-0.6
COc1ccc(C(=O)/C=C/Nc2c(C)n(C)n(-c3ccccc3)c2=O)cc1OC	3.6	.	.	.	.	.	2.9%	47.8	.
Cc1ccc(NC(=O)c2cc(S(=O)(=O)N3CCc4ccccc43)cn2C)cc1C	0.6	7.7	4.9	0.7	i	0.675	.	-9.6	-4.9
CN(C)c1ccc(C(C(=O)NCc2ccccc2)N(Cc2ccco2)C(=O)c2snc(C(N)=O)c2N)cc1 (stereo not drawn)	-2.6	-1.3	2.2	2.3	i	.	.	12.0	1.1
O=C(O)c1ccc2c(c1)-c1nc3ccccc3n1C2=O	1.2	.	.	.	.	0.718	5.9%	-9.9	.
Cc1noc(C)c1NC(=O)Nc1ccc2c(c1)C(=O)N([C@@H](C)CO)C[C@H](C)[C@@H](CN(C)S(=O)(=O)c1cn(C)cn1)OCCCC[C@@H](C)O2	.	0.8	3.4	-1.1	i	.	.	.	-2.0
c1ccc(-c2nn3c(-c4ccccc4)nnc3o2)cc1	-1.9	7.3	4.8	2.9	i	.	4.8%	.	-1.4
CCCn1c(CCc2ccccc2)n[nH]c1=S	-2.2	-1.0	4.9	-0.4	.	0.724	1.5%	63.2	-8.3
O=C(NC1CC(=O)N(c2ccc(Cl)cc2)C1)C1CC1 (stereo not drawn)	2.6	4.8	2.1	-3.0	i	0.672	1.5%	-1.2	-18.9
COc1ccccc1-c1cnc2c(c1)C(=O)N([C@@H](C)CO)C[C@H](C)[C@@H](CN(C)C(C)=O)O2	.	3.6	4.3	-1.8	i	.	.	.	-1.3
CCC(C)NC(=O)N[C@@H](CCSC)C(=O)O (stereo partly drawn)	1.6	8.9	9.1	-0.3	i	0.684	-11.6%	-3.0	-2.6
(cont.)
SMILES	HNF4A DNA FP	Ecoli rRNA inh	Ecoli rRNA inh OD600	Ecoli rRNA inh RFP	FGF22 binding	E coli growth	Vif A3G	ALR H2O2 inh	AF4-AF9 inh
COCCNC(=S)NNc1cccc(C(=O)O)c1	-0.9	5.9	6.7	2.2	i	0.685	.	.	-0.8
COc1cccc(-c2onc3ccc(C4(C)OCCO4)cc23)c1	3.7	12.1	3.1	-1.2	.	0.678	.	-33.1	17.6
Cc1ccc(S(=O)(=O)Nc2nc(CN3CCOCC3)nc3sc(C(=O)O)c(C)c23)cc1	-8.1	8.1	11.7	-0.5	i	.	8.0%	.	0.1
COc1cc(/C=C/C(=O)N(Cc2ccccc2)c2ccccn2)cc(OC)c1OC	0.2	.	.	.	i	0.723	9.9%	-2.1	-4.0
CCOC(=O)C1CCN(C(=O)Cn2nc(C)n3nc(-c4ccc(OC)cc4)cc3c2=O)CC1	0.1	13.4	20.1	3.5	i	0.704	.	-0.9	-0.2
C[C@H]1CN([C@@H](C)CO)C(=O)Cc2cc(NC(=O)NC3CCCCC3)ccc2O[C@H]1CN(C)Cc1ccncc1	.	-6.4	-2.3	1.1	i	.	.	.	-3.4
Cc1ccc(-n2c(C)cc(/C=N/Nc3ccc([N+](=O)[O-])cn3)c2C)c(C)c1	14.6	.	.	.	.	.	2.2%&10.3%	-10.5	.
CN(C)S(=O)(=O)c1cccc(COC(=O)CN2CCCCCC2=O)c1	1.1	0.3	1.5	0.5	i	0.694	.	.	1.2
COc1ccc(N2CC(C(=O)Nc3nnc(SCC(=O)NCC4CCCO4)s3)CC2=O)cc1 (stereo not drawn)	-4.8	.	.	.	i	0.668	6.3%	17.6	-2.6
O=C(CC1CC1)N[C@@H]1CC[C@@H](CCNS(=O)(=O)c2ccc(F)cc2)O[C@H]1CO	.	1.9	6.2	-1.6	i	.	.	.	-0.5
COc1ccc(NC(=O)Nc2ccc3c(c2)C(=O)N([C@H](C)CO)C[C@@H](C)[C@H](CN(C)C(=O)Nc2ccc(F)cc2)O3)cc1	.	6.0	4.9	-0.3	i	.	.	.	0.4
Cc1ccc(-c2csc3ncn(CC#N)c(=O)c23)cc1	-0.7	.	.	.	.	0.725	.	1.2	.
O=C(Cc1ccccn1)NCC[C@@H]1CC[C@@H](NC(=O)Nc2ccc(F)cc2)[C@H](CO)O1	.	-1.7	0.0	-0.4	i	.	.	.	-0.1
